MARV entry inh – Marburg virus entry inhibition; Marburg virus pseudotype entry/binding inhibition, cell-based; control for the full effect not named in the record; many of its hits are not listed in these tables; Potency, µM (series often up to 49.2 µM), without a hit: top-dose activity change, negative = inhibition, hits mostly inhibitors; hit rate 6.5% among 18,000; active means well fitted inhibition curve with a large enough effect; inconclusive means small, poorly fitted or top-dose-only effect; inactive means no such curve, though single readings can be large or run the other way; tested in HEK293 cells; further: luciferase read-out
LASV entry inh – Lassa virus entry inhibition; Lassa virus pseudotyped entry inhibition, cell-based qHTS; control for the full effect not named in the record; many of its hits are not listed in these tables; Potency, µM (titrated, usually from 49.2 µM), without a hit: at the highest dose activity change, negative = inhibition, most hits filed as inhibitors; hit rate 4.1% among 18,000; active = well fitted inhibition curve with a large enough effect; inconclusive = small, poorly fitted or top-dose-only effect; inactive = no such curve, though single readings can be large or run the other way; tested in HEK293 cells; further: luciferase read-out
* = called active by the depositor; ? = inconclusive; · = not tested or not shown; & = joins results of further samples; [ ] = dose if it differs, or a comment. On the % scale 0 is the no-effect control and ±100 the full control effect; potency means the concentration at half of the fitted maximal effect.

structure	MARV entry inh	LASV entry inh
COc1ccccc1N1CCN(c2nc(CNC(=O)c3ccc(C)c(C)c3)nc3ccccc23)CC1	4%	?
COc1ccc(OC)c(-c2ccnc(-n3ncc(C(=O)NC(C)(C)CO)c3C3CC3)n2)c1	51%[activator]	22%
Cc1c(C)c2c(c(C)c1OC(=O)CCC(=O)OCCO)CC[C@@](C)(CCC[C@H](C)CCC[C@H](C)CCCC(C)C)O2	?	?
CCOC(=O)C1=C(N)Oc2ccc(Br)cc2C1C(C#N)C(=O)OCC (stereo not given)	-5%&-14%&19%	7%&3%&-5%
Cc1cc(-c2ccnc(-n3ncc(C(=O)NCCc4cccnc4)c3C)n2)c(C)s1	-9%	-20%
C=CCN1CC(COCCCC)Oc2ccc(Cl)cc2S1(=O)=O (stereo not given)	25%	-23%
C[C@H]1COc2cccc(N3CCCC3)c2S(=O)(=O)N1	21%	11%
CO[C@@H]1[C@@H](OC)[C@H](C)[C@@](O)(CC(=O)O)O[C@H]1[C@H](C)[C@H]1O[C@@]2(CC[C@@](C)([C@H]3CC[C@@](C)([C@@H]4O[C@@H]([C@H]5O[C@](C)(O)[C@H](C)C[C@@H]5C)C[C@@H]4OC4C[C@H](OC)[C@@H](OC)[C@H](C)O4)O3)O2)C[C@H](O)[C@H]1C (stereo not given in full)	?	1µM*
Cn1ccc2c(N3CCCC3)cc3c(c21)C1CCC3C1 (stereo not given)	-21%	-25%
CN(C)C(=O)[C@@H]1C[C@@H](Sc2nc3ccccc3[nH]2)CN1Cc1ccc(Cl)cc1	-7%	-20%
CC(C)C[C@@H](CC(=O)N[C@@H](CCC(=O)O)CC(=O)O)NC(=O)[C@@H]1CNCC[C@H]1NC(=O)C[C@H](CCCN)NC(=O)C[C@H](CO)NC(=O)[C@@H]1CNCC[C@H]1N	2%	0%
CC(C)C[C@H](NC(=O)[C@@H]1CCCN1C(=O)[C@H](CO)NC(=O)[C@H](Cc1ccccc1)NC(=O)CNC(=O)[C@@H]1CCCN1C(=O)[C@@H]1CCCN1C(=O)[C@@H](N)CCCN=C(N)N)C(=O)O	-17%	8%
O=C(O)CN(CCOCCOCCN(CC(=O)O)CC(=O)O)CC(=O)O	24%	-3%
Fc1ccc(N2CCN(Cc3ccc4c(c3)CN(Cc3cccn3-c3ncccn3)CCO4)CC2)cc1	?	?
C=CCN1C(=O)[C@@]2(CC(C)=CC[C@@H](C)O2)c2c(Br)cccc21	3%[8.59 µM]	1%[8.59 µM]
CCc1ccc(OCc2ccccc2C(=O)Nc2ccc3nc(C)cc(N)c3c2)cc1	4µM*	7.1µM*
COC(=O)CCCC1=CC2=CC(=O)C(C)(OC(=O)c3cccs3)C(=O)C2=CN1CCc1c[nH]c2ccccc12 (stereo not given)	-8%[8.59 µM]	-14%[8.59 µM]
C=CCO[C@@H]1C=C[C@@H](c2ccccc2)O[C@@H]1COC	18%[8.59 µM]	4%[8.59 µM]
CCCN[C@H]1CCc2nc(N)sc2C1	8%	-1%
COc1cc(OC)cc(C(=O)N2CCCC(n3cc(C(=O)NCC(C)C)nn3)C2)c1 (stereo not given)	13%	-8%

Following part
structure	MARV entry inh	LASV entry inh
CC(C)C1C(=O)N(Cc2cn(CC3CCCCC3)nn2)CCS(=O)(=O)N1Cc1ccc(-c2cccc(CO)c2)cc1 (stereo not given)	?	·
CC1CC2CC(=O)C3CCCN4CCCC2[C@]34C1 (stereo not given in full)	-11%	-4%
CC(=O)OC[C@H]1O[C@H](C#Cc2ccc(F)cc2F)C=C[C@H]1OC(C)=O	36%[activator][8.59 µM]	1%[8.59 µM]
Cc1ccc([C@H]2C[C@@H](n3cc(COC(=O)c4ccccc4)nn3)[C@H](O)CN2CC2CCCCC2)cc1	?	·
CC(=O)OC1CC[C@@]2(C)C3CC[C@@]4(C)C(CC5O[C@@]6(CCC(C)CO6)C(C)C54)C3CC[C@@H]2C1 (stereo not given in full)	9%	-7%
c1cncc(CNc2nc(-c3ccc4c(c3)OCO4)nc3ccccc23)c1	-8%	4%
CCOc1ccccc1CN1CCCC(c2nc(C)ncc2-c2ccc(F)cc2)C1 (stereo not given)	10µM*	-15%
N#C[C@@H]1C[C@@H]2C[C@@H]2N1C(=O)[C@@H](N)C12CC3CC(CC(O)(C3)C1)C2	1%	-1%
COc1cccc([C@@H]2Oc3ccc(Br)cc3C(=O)[C@H]2OC(=O)NCCOc2ccccc2)c1	-15%	8%
COc1ccc2c(c1)O[C@@H](c1cccc(C(F)(F)F)c1)[C@H](OC(=O)NCCc1ccc(OC)c(OC)c1)C2=O	-22%	-10%
CC(C)[C@H]1COCCS(=O)(=O)N1Cc1ccccc1-c1cccc2c1oc1ccccc12	?	?
COc1cccc([C@@H]2Oc3ccc(Br)cc3C(=O)[C@H]2OC(=O)NS(=O)(=O)c2ccc(C)cc2)c1	32%[activator]	58%[activator]
CC(C)(CNC(=O)c1cnn(-c2nccc(-c3ccccc3F)n2)c1C1CC1)N1CCOCC1	1%	9%
O=C1C2=C(S[C@@H]3O[C@H](CO)[C@@H](O)[C@H](O)[C@H]3O2)C(=O)c2ccccc21	?	?
O=C(Cn1ccnc1[N+](=O)[O-])NCc1ccccc1	2%	-5%
COc1cccc([C@@H]2Oc3ccc(OC)cc3[C@H](O)[C@@H]2O)c1	-7%[8.59 µM]	-20%[8.59 µM]
CN(CCc1ccc(Cl)c(Cl)c1)CCN1CCCC1	8.9µM*	32µM*
COc1cccc(-c2ccnc(-n3ncc(C(=O)NCC(C)(C)CN(C)C)c3C)n2)c1	-23%	-7%
O=c1cc(-c2cccc(O)c2)oc2cccc(O)c12	44%[activator]	26%
CC(C)CC1C(=O)N(Cc2cn(Cc3ccco3)nn2)CCS(=O)(=O)N1Cc1ccc(-c2ccc(Cl)cc2)cc1 (stereo not given)	?	·

Quoted from the entries so far for reference:
structure	MARV entry inh	LASV entry inh
CC(C)C1C(=O)N(Cc2cn(CC3CCCCC3)nn2)CCS(=O)(=O)N1Cc1ccc(-c2cccc(CO)c2)cc1 (stereo not given)	?	·
CC1CC2CC(=O)C3CCCN4CCCC2[C@]34C1 (stereo not given in full)	-11%	-4%
CC(=O)OC[C@H]1O[C@H](C#Cc2ccc(F)cc2F)C=C[C@H]1OC(C)=O	36%[activator][8.59 µM]	1%[8.59 µM]
Cc1ccc([C@H]2C[C@@H](n3cc(COC(=O)c4ccccc4)nn3)[C@H](O)CN2CC2CCCCC2)cc1	?	·
CC(=O)OC1CC[C@@]2(C)C3CC[C@@]4(C)C(CC5O[C@@]6(CCC(C)CO6)C(C)C54)C3CC[C@@H]2C1 (stereo not given in full)	9%	-7%
c1cncc(CNc2nc(-c3ccc4c(c3)OCO4)nc3ccccc23)c1	-8%	4%

Going on with the list.
Values run as follows: MARV entry inh | LASV entry inh
> CC1(C)CC(=O)C2=C(C1)O[C@@]1(CCCCN3C(=O)c4ccccc4C3=O)Cc3c(ccc4ccccc34)[C@H]2O1
  -27%[8.59 µM] | -4%[8.59 µM]
> CC(=O)[O][Sn]([c]1ccccc1)([c]1ccccc1)[c]1ccccc1
  1µM* | ?
> O=S1(=O)c2ccc(Br)cc2-n2nncc2CN1Cc1ccc(C(F)(F)F)cc1
  25% | 20%
> COc1ccccc1N1CCN(c2nc(CNC(=O)C3CCOC(C)(C)C3)nc3ccccc23)CC1 (stereo not given)
  ? | ?
> O=P1(N(CCCl)CCCl)NC(OO)CCO1 (stereo not given)
  -2% | -9%
> CC(=O)Nc1cc(C(=O)N2CCSCC2)cc2ncn(CCc3ccccn3)c12
  -15% | -1%
> COC(=O)[C@@H]1CCCN1Cc1ccc2c(c1)CN(Cc1ccccc1C)CCO2
  2% | -3%
> COC(=O)C1(C(C)=O)CC2=CC[C@H]3C(=O)N(c4ccccc4)C(=O)[C@H]3[C@@H]2Cc2ccccc2[C@@H]1C[N+](=O)[O-] (stereo not given in full)
  0%&-16% | 2%&7%
> CC(C)C[C@@H](CC(=O)N[C@@H](CCCN)CC(=O)N[C@@H]1CCNC[C@H]1C(=O)N[C@H](CC(=O)N[C@@H](CCC(=O)O)CC(=O)O)Cc1c[nH]c2ccccc12)NC(=O)[C@@H]1CNCC[C@H]1N
  9% | 0%
> CCCNC(=O)N1N=C(c2ccc(N)cc2)c2cc3c(cc2C1C)OCO3 (stereo not given)
  -29% | -23%
> CC1(C)OC(=O)NC1=O
  15% | -3%
> C=CCOC(=O)C(=C)C
  9% | -1%
> CNC(=O)[C@H](Cc1c[nH]c2ccccc12)NC(=O)[C@@H](CC(=O)NO)CC(C)C
  -24%&-26% | ?
> O=P1(NCCCl)OCCCN1CCCl (stereo not given)
  6%[17.8 µM] | 0%[17.8 µM]
> c1ccc2c(N3CCNCC3)cccc2c1
  ? | 0%

2 records picked at random from the list so far:
Values run as follows: MARV entry inh | LASV entry inh
> O=P1(NCCCl)OCCCN1CCCl (stereo not given)
  6%[17.8 µM] | 0%[17.8 µM]
> CC(=O)Nc1cc(C(=O)N2CCSCC2)cc2ncn(CCc3ccccn3)c12
  -15% | -1%

Next section:
Values run as follows: MARV entry inh | LASV entry inh
> COc1cccc([C@@H]2Oc3ccc(OC)cc3C(=O)[C@H]2OC(=O)Nc2ccc(OC(F)F)cc2)c1
  9% | -1%
> Cc1ccc(NC(=O)OCCN2CCN(Cc3ccccc3)CCC2=O)cc1C
  0%&-9% | -1%&-12%
> COC(C)C(C(=O)OCC1=CCN2CC[C@H](O)[C@@H]12)C(C)C (stereo not given in full)
  ? | -12%
> CCCCC/C=C\C\C=C/C=C/C=C/[C@@H](SC[C@H](NC(=O)CC[C@H](N)C(=O)O)C(=O)NCC(=O)O)[C@@H](O)CCCC(=O)O
  18% | -3%
> COc1ccccc1-c1ccc2ncnc(N3CCN(C)CC3)c2c1
  ? | ?
> COc1cc(OC)c2c(-c3cccc(-c4ccc(C(F)(F)F)cc4)c3)cc(=O)oc2c1
  ? | ?
> N[C@@H](Cc1cnc[nH]1)C(=O)O
  -13% | -24%
> COc1cc(=O)n2c(c1C(=O)N(C)Cc1nccs1)CCN(Cc1cccc(F)c1F)CC2
  -10% | -4%
> COc1cccc(-c2nccc(NCc3cccc(C)c3)n2)c1
  6% | 42%[activator]
> CC(N)Cc1c[nH]c2ccc(O)cc12 (stereo not given)
  -16% | -5%
> COc1cc2ncnc(Nc3ccc4c(cnn4Cc4ccccc4)c3)c2cc1OC
  ? | -24%
> CC1CC[C@@]2(NC1)O[C@@H]1C[C@H]3C4CC=C5C[C@@H](O)CC[C@]5(C)C4CC[C@]3(C)[C@H]1[C@@H]2C (stereo not given in full)
  7% | 3%
> CC/C=C\C/C=C\C/C=C\C/C=C\C/C=C\C/C=C\CCC(=O)NC(C)C(=O)O (stereo not given)
  4% | -2%
> COc1ccc(OCC2CN(Cc3ccccc3)S(=O)(=O)CCO2)cc1 (stereo not given)
  8% | -10%
> NCc1ccccc1CC(=O)N[C@@H]1C(=O)N2C(C(=O)O)=C(CSc3nnnn3CC(=O)O)CS[C@H]12
  -16%[17.8 µM] | -4%[17.8 µM]

(listing goes on)
Values run as follows: MARV entry inh | LASV entry inh
> COc1cc2oc(=O)cc(-c3ccc(-c4ccc(C)cc4)cc3)c2c(OC)c1OC
  1% | 7%
> CCC(=O)O[C@H]1CC[C@H]2[C@@H]3CCC4=CC(=O)CC[C@]4(C)[C@H]3CC[C@]12C
  -22%[17.8 µM] | -20%[17.8 µM]
> CSc1ncccc1C(=O)NCCN1Cc2ccccc2OC(c2ccccc2F)C1 (stereo not given)
  0% | -25%
> CC(C)C[C@H](NC(=O)N1CCCCCC1)C(=O)N[C@H](Cc1cn(C)c2ccccc12)C(=O)N[C@H](Cc1ccccn1)C(=O)O
  -1%&10% | -2%&-7%
> C=CCN1C=C2C(=O)C(C)(OC(=O)c3ccco3)C(=O)C(C=C)=C2C=C1C1CC1 (stereo not given)
  62%[activator][8.59 µM] | 2%[8.59 µM]
> CCCN(CCC)CCc1ccc(O)c(O)c1
  14% | 4%
> C1CN(P2(N3CC3)=NP(N3CC3)(N3CC3)=NP(N3CC3)(N3CC3)=N2)CCO1 (stereo not given)
  -6% | -6%
> CO[C@H]1[C@H](NC(=O)c2cccs2)c2ccccc2C12CCN(Cc1cccn1-c1ccccn1)CC2
  ? | -1%
> O=C(Nc1ccccc1)c1ccc(-c2ccccc2C(F)(F)F)o1
  53%[activator] | 49%[activator]
> CC(=O)OC1CC[C@]2(C)C(CC(OC(C)=O)[C@]3(C)C2CC[C@@]2(C)C(c4ccoc4)OC(=O)C4O[C@]432)C1(C)C (stereo not given in full)
  ? | 0%
> C[C@@H]1C[C@H](C)C[C@H](C)[C@@H](O)CC(=O)O[C@H]([C@H]2CCC[C@H]2C(=O)O)C/C=C/C=C(/C#N)[C@H](O)[C@@H](C)C1
  10µM* | ?
> Cc1ccccc1C(=O)N1[C@@H](C(C)C)COc2cc(Br)ccc2S1(=O)=O
  ? | ?
> C=C(C)C(=O)OCCOCC
  6% | -16%
> O=C(c1cccnc1)C1CCCN(Cc2ccc3c(c2)CN(C(=O)c2cccc(Cl)c2)CCO3)C1 (stereo not given)
  ? | -14%
> Cc1ccc(C2CC(=O)Oc3cc4c(cc32)OCO4)cc1 (stereo not given)
  15% | -6%

New compounds follow:
Values run as follows: MARV entry inh | LASV entry inh
> CC(=Nc1ccc(S(N)(=O)=O)cc1)c1c(O)[nH]c2ccccc12
  91%[activator] | 95%[activator]
> CS(=O)(=O)c1ccc(C2=C(c3ccccc3)C(=O)OC2)cc1
  7% | -9%
> COc1ccccc1C(=O)N1CCOc2ccc(C(C)(O)CCn3cccn3)cc2C1 (stereo not given)
  -1% | 6%
> COc1cccc(CC(=O)N2CCc3nc(COc4ccccc4)c4c(c3C2)CO[C@@H](C)C4)c1
  -9%[8.59 µM] | -13%[8.59 µM]
> COc1c2c(cc3c1C(CC(O)C(C)C)N(C)CC3)OCO2 (stereo not given)
  -26% | -9%
> Cc1cc(O)cc(=O)o1
  10% | -14%

This is a subset, so the mix of outcomes need not match the whole.
